Screening results (PubChem BioAssay)
Prx2 Sm inh = inhibitors of Schistosoma mansoni peroxiredoxin 2; S. mansoni Prx2 activity coupled to TGR/GSH (TGR is thioredoxin glutathione reductase), NADPH fluorescence loss, qHTS; some inactives read as strong as hits; Potency, µM; 0.07% of 65,000 active; active means full or partial inhibition curve with a strong effect at the top dose; inconclusive means weaker partial or single-point curve; inactive means no accepted curve; further: series up to 57 µM; many of its hits are not listed in these tables
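Purified S. mansoni TGR and Prx2 in pH 7.4 phosphate buffer with EDTA and Tween-20 were preincubated with compounds for 15 min. Further NADPH/GSH was added, then a 2.5 mM H2O2 aliquot initiated turnover, followed kinetically by NADPH fluorescence.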
LT uptake inh = inhibitors of anthrax lethal toxin internalization | Cells, anthrax lethal toxin internalization, FRET ratio (460/530) | Potency, µM (top dose mostly 40 µM), inactives show at the highest dose activity change, negative = inhibition, most hits filed as inhibitors | 0.67% of 70,000 active; active = well fitted falling ratio curve with the 530 nm signal flat; inconclusive = other ratio curves, or a change in one channel alone; inactive = flat curves in the ratio and both channels; the % refers to the ratio; further: on the % scale 0 is the no-effect control and ±100 the full control effect; nearly all actives have a fitted effect of over 50% in size; tested in ME-180 cells; beta-lactamase reporter
Starred values were filed as active, the others as inactive; ? = inconclusive; / = no result given; & = joins results of further samples; [ ] = dose if it differs, or a comment. Potency means the concentration at half of the fitted maximal effect.

molecule | Prx2 Sm inh | LT uptake inh
COc1cccc(NS(=O)(=O)c2ccc(OC)c(OC)c2)c1 | >57 | -6.4%
Cc1cc(NC(=O)CSc2nnc(C3CC3)n2N)no1 | >57 | ?
Nc1nc(N)nc(CC(=O)O)n1 | >57 | -2.7%[8 µM]
CC(COc1cccc2ccccc12)CN1CCN(C)CC1 (centres undefined) | >57 | -10.9%
Cc1ccccc1CSc1ncc(C#N)c(N)n1 | >57 | ?
COC(=O)c1ccc(NCC(=O)c2ccccc2)cc1 | >57 | ?
CCCCCCN(C(=O)CCCCCN1C(=O)NC(c2ccc(Cl)cc2)C(C(=O)OCc2ccccc2)=C1C)C(C(=O)NCCCC)c1ccc(OCC(=O)OC)c(C(=O)OC)c1 (centres undefined) | / | ?
COCCN1C(=O)c2oc3cc(C)c(C)cc3c(=O)c2C1c1ccc(O)cc1 (centres undefined) | >57 | /
CS(=O)(=O)N1CCc2cc(-c3csc(NCC4CCCO4)n3)ccc21 (centres undefined) | >57 | 6.4%
Cc1ccc(NC(=O)NC2CCCCC2)cc1Cl | >57 | -10.1%
COCC(=O)N1CCC2(CCCN(Cc3nccs3)C2)CC1 | >57 | 21.6%
CC(=O)NC1(c2cccc(F)c2)CCN(C(=O)Nc2ccc(C#N)cc2)CC1 | >57 | -2.6%
COc1ccc(OC)c(C2C(C(=O)c3ccc(C)o3)=C(O)C(=O)N2CCCN2CCOCC2)c1 (centres undefined) | >57 | 15.4%
Cc1cnc(Nc2nc3ccccc3o2)nc1C(=O)Nc1cccc(C(F)(F)F)c1 | >57 | -4.5%
COc1cccc(N2CCN(C3CC(=O)N(c4ccc(Cl)cc4)C3=O)CC2)c1 (centres undefined) | >57 | ?
CCn1c(SCC(=O)c2cc(OC)ccc2OC)nnc1C1CC1 | >57 | 6.2%
Cc1cc(C)n(CCc2nc(-c3cc4ccccc4o3)cs2)n1 | >57 | 25.1µM*
NS(=O)(=O)c1ccc(CNC(=O)c2ccc(Br)o2)cc1 | >57 | -6.1%
O=C(CN1C(=O)NC2(CCCCCC2)C1=O)c1ccc2c(c1)OCCO2 | >57 | -2.3%
Cc1csc(NC(=O)c2c(O)c3cccc4c3n(c2=O)CCC4)n1 | >57 | 4.1%
O=C(Nc1c(F)c(F)c(F)c(F)c1F)C1CCCCC1 | / | -14.8%
O=C(CSc1nnc(Cn2c(=O)sc3ccccc32)n1CCc1ccccc1)N1CCCC1 | >57 | 14.8%
CCN(CC(=O)NC(C)C)C(=O)c1ccc(S(=O)(=O)N(C)c2ccccc2OC)cc1 | >57 | -2.7%
O=C(CCC(=O)N1CCCC1)Nc1nnc(C2CCCCC2)s1 | >57 | 1.1%
Cc1ccnc(N2CCCC(C(=O)Nc3cc(F)ccc3C)C2)n1 (centres undefined) | >57 | -0.7%
Cn1cccc1C(=O)N1CCC[C@@]2(CCN(c3ccccc3)C2)C1 | >57 | ?
CN(Cc1nc(-c2ccccn2)no1)S(=O)(=O)c1ccccc1 | >57 | 10.2%
CCOc1cccc(C(=O)Nc2cccc(-c3nnc(-c4ccc(C)cc4)o3)c2)c1 | >57 | /
Cc1cnc(SCCc2ccncc2)nc1C | >57 | -0.1%
Clc1ccc(Cl)c(OCCN2CCOCC2)c1 | >57 | 16.6%
COC(=O)c1ccc(CNC(=O)COc2ccccc2Br)o1 | >57 | ?
O=C(Nc1ccccc1C(=O)N1CCCC1)C1CCN(c2ncccn2)CC1 | >57 | -1.3%
COc1ccc2occ(C(=O)c3ccc(N=C(C)N(C)C)cc3)c2c1 | / | -11.5%
CCN(CC)C(=O)c1cc(-c2ccc(Br)cc2)on1 | >57 | 2.1%
CC(=O)Nc1cc(C(F)(F)F)ccc1OCC1CCCO1 (centres undefined) | >57 | 2.6%
CCOC(=O)N1CCC(N2Cc3cccc(C(=O)N4CC(C)CC(C)C4)c3C2=O)CC1 (centres undefined) | >57 | 11.7%
CCOC(=O)N1CCC(NC(=O)c2cc3c(=O)n(C)c4ccccc4c3n2C)CC1 | >57 | ?
COc1ccc(S(=O)(=O)N(C(C)=O)c2ccc3oc(=O)sc3c2)cc1 | >57 | ?
CCCCNC(=O)Nc1ccon1 | >57 | 10.5%
O=c1cc2c(n[nH]1)CCCC2 | >57 | -6.2%
Cc1cc(F)ccc1S(=O)(=O)Nc1ccccc1C(=O)Nc1ccc2[nH]c(=O)[nH]c2c1 | >57 | -4.8%
COc1ccc(C2=C(N)c3ccccc3C2=O)cc1 | >57 | -18.4%
CCNC(=O)CSc1nc2ccccc2c(=O)n1CCCOC(C)C | / | 4.7%
C=C(C)c1cccc(C(C)(C)NC(=O)N2CCN(c3ccccn3)CC2)c1 | >57 | -22.4%
COc1ccc2c(c1)C1(Nc3ccccc3-c3nc4ccccc4n31)C(=O)N2C (centres undefined) | >57 | -1.9%
CSc1nnc(-c2cnccn2)n1Cc1ccccc1 | >57 | -14.3%
CN(N=O)c1ccc(/C=C\c2ccnc3ccccc23)cc1 | >57 | -8.5%[8 µM]
COc1ccc(NC(=O)CSc2nnc(-c3ccco3)n2C)cc1 | >57 | ?
O=P1(c2ccccc2)C=Cn2c1cc1c2CCCC1 (centres undefined) | >57 | -0.4%
O=C1CCc2cc(S(=O)(=O)N3CCC(C(=O)NC4CCCc5ccccc54)CC3)ccc2N1 (centres undefined) | >57 | -5.9%
CC1(C)CCC2=C(O1)c1ccccc1C(=O)C2=O | / | ?
CN(C)c1nc(C(=O)Nc2ccccc2)nc(N(C)C)n1 | >57 | -17.4%
Cc1ccc(-n2c(SCC(N)=O)nnc2-c2ccccn2)cc1 | >57 | 1.3%
Cc1cc(NC(=O)Cn2nnc3sc4c(c3c2=O)CCC(C(C)(C)C)C4)no1 (centres undefined) | >57 | ?
CCOc1ccc(C2NC(=O)c3ccccc3O2)cc1 (centres undefined) | >57 | -24.3%
CN(C)c1cccc(OC2C=CC(C#Cc3ccccc3)OC2CO)c1 (centres undefined) | / | -5.4%[8 µM]

Continued; it opens with the 4 that closed the last part.
molecule | Prx2 Sm inh | LT uptake inh
Cc1ccc(-n2c(SCC(N)=O)nnc2-c2ccccn2)cc1 | >57 | 1.3%
Cc1cc(NC(=O)Cn2nnc3sc4c(c3c2=O)CCC(C(C)(C)C)C4)no1 (centres undefined) | >57 | ?
CCOc1ccc(C2NC(=O)c3ccccc3O2)cc1 (centres undefined) | >57 | -24.3%
CN(C)c1cccc(OC2C=CC(C#Cc3ccccc3)OC2CO)c1 (centres undefined) | / | -5.4%[8 µM]
CC1CCCCN1C(=O)Nc1cccc(Cl)c1 (centres undefined) | >57 | -14.8%
C[C@@H](Cc1ccc(Cl)cc1Cl)NO | >57 | ?
C=CCNC(=O)c1ccc(OC)cc1OC | >57 | /
O=C(Nn1c(C2CCC2)nc2ccccc2c1=O)C1CCC1 | >57 | 2.0%
O=C(c1noc2c1CCCC2)N1CCN(c2ccc(F)cc2)CC1 | >57 | 9.6%
COCCNC(=O)C(c1ccc(C)cc1)N(C(=O)CCC(=O)Nc1ccccn1)C1CCCC1 (centres undefined) | >57 | 18.5%
CCCNC(=O)NCCc1ccncc1 | >57 | -2.4%
O=C1c2oc3ccccc3c(=O)c2C(c2cccc(F)c2)N1CCCO (centres undefined) | >57 | 7.9%
CCOC(=O)C1CCN(c2cc(=O)n(Cc3ccc(F)cc3)c(=O)[nH]2)CC1 | >57 | 17.1%
CC(C)NS(=O)(=O)c1ccc(OCC(=O)NCc2ccccc2)cc1 | >57 | 6.2%
COCC(=O)N1CCC2(CCCN(Cc3cc(C(F)(F)F)cc(C(F)(F)F)c3)C2)CC1 | >57 | 22.1%
CC(=O)C1=C(O)C(=O)N(C)C1c1ccccc1F (centres undefined) | / | -3.9%
COc1ccc(C2C(C(=O)N3CCCC3)c3cc(OC)c(OC)cc3C(=O)N2C)cc1 (centres undefined) | >57 | ?
O=C(NCC(=O)N(c1cnc2ccccc2c1)C(C(=O)NC1CCCC1)c1ccncc1)c1ccco1 (centres undefined) | >57 | -6.5%
CCSC1=C(C#N)C2(CCCCC2)C(C#N)C(=O)N1 (centres undefined) | / | -21.1%
CC(C)C(C)(C#N)NC(=O)CSc1nc2scc(-c3ccco3)c2c(=O)n1-c1ccccc1 (centres undefined) | >57 | ?
CCCCOc1ccccc1NC(=O)c1ccco1 | / | ?
O=C(Oc1ccc2c(c1)OCO2)c1ccc(F)cc1Cl | >57 | -23.5%
COc1ccc(CCNC(=O)c2nonc2N)cc1OC | >57 | 11.7%
O=[N+]([O-])c1ccccc1 | / | -10.7%
CC(=O)Nc1ccc(S(=O)(=O)NCCSc2ccccn2)cc1 | >57 | 17.7%
O=C(c1cccnc1)N1CCN(C(=O)c2ccccc2F)CC1 | >57 | 2.4%
O=C(O)c1ccccc1SCC(=O)N1CCCCC1 | / | -8.6%
COc1ccc(-n2c(Cc3cccn3C)nnc2SCC(=O)N2CCCc3ccccc32)cc1 | >57 | -16.3%
Cc1cccc(NC(=O)CSc2nnc(Cn3nnc(-c4ccccc4)n3)n2-c2ccccc2)c1 | >57 | -5.1%
CCOC(=O)CN(C(=O)CSc1nnc(-c2ccc(OC)c(OC)c2)o1)c1ccccc1 | >57 | -3.2%
C[C@H](N)CCCC(C)(C)O | >57 | -4.4%[3.58 µM]
CC(=O)c1c(O)cc(C)n(Nc2nc(C)cc(C)n2)c1=O | >57 | -12.7%
Cc1ccc(S(=O)(=O)NCc2ccco2)c(C)c1C | >57 | ?
O=C(C1CCCCC1)N1CCCC(c2nc(-c3ccc(F)cc3)no2)C1 (centres undefined) | >57 | -5.1%
CN(CC(=O)NCc1ccc(F)cc1)S(=O)(=O)c1cccc2nsnc12 | >57 | -4.2%
COCCn1c(SCC(=O)NCC2CCCO2)nc2c(c1=O)SC(C)C2 (centres undefined) | >57 | -1.6%
COc1ccc(S(=O)(=O)N2CCCC(C(=O)Nc3cccc(C(C)=O)c3)C2)cc1 (centres undefined) | >57 | -5.9%
NC(=O)C1CCN(C(=O)c2cnn(-c3ccccc3)c2NC(=O)c2ccco2)CC1 | >57 | -8.1%
CC(C)c1ccc(O)c(O)c(=O)c1 (tested in a mixture with another compound) | >57 | -0.3%[8 µM]
CCOC(=O)C1=C(N)Oc2cc(C)oc(=O)c2C12C(=O)N1c3c(cccc32)C(C)CC1(C)C (centres undefined) | >57 | -1.5%
O=C(CSc1ccc2nnc(-c3ccccn3)n2n1)NCc1ccc2c(c1)OCO2 | >57 | 6.9%
CCNc1ncc2nc(C)c(=O)n(-c3ccc(OC)cc3)c2n1 | >57 | -29.1%
O=C(Nc1cccc(F)c1)N1CCC2(CCNCC2)CC1 | >57 | 8.2%
CCOC(=O)c1[nH]c(C)c(C(=O)N2CCN(C(=O)c3ccco3)CC2)c1C | >57 | 3.0%
CCOC(=O)c1cc2c(C(F)(F)F)cc(-c3cccnc3)nc2o1 | >57 | 0.6%
Cc1cccc(-n2c(Cc3ccccc3)nnc2SCC(=O)N2CCOCC2)c1 | >57 | -9.5%
N#C/C(=C/c1ccc(N2CCCCCC2)o1)c1ccc(F)cc1 | / | ?
CC(C)CCn1c(N2CCN(Cc3ccccc3)CC2)nc2c1c(=O)[nH]c(=O)n2C | >57 | 1.9%
Cc1cccc(S(=O)(=O)NCCC(=O)OC(C)C(=O)NC(=O)NC2CCCCC2)c1 (centres undefined) | >57 | -4.1%
c1ccc2c(c1)sc1nnnn12 | >57 | 9.5%
Cc1nnc(SCCn2c(N3CCC(C)CC3)nc3c2c(=O)[nH]c(=O)n3C)s1 | >57 | -9.7%
COc1ccc(OCC(=O)Nc2ccc(S(=O)(=O)N3CCCCCC3)cc2)cc1 | >57 | -27.8%
Nc1cc(-c2cccc(F)c2)nn1S(=O)(=O)c1cccc2nsnc12 | >57 | ?
CCCn1c(-c2ccc(F)cc2)nc2c(NCCCN(CCO)CCO)nc(C)nc21 | / | -2.6%
CC(C(=O)Nc1cc(C(F)(F)F)ccc1N1CCOCC1)N1C(=O)C2CC=CCC2C1=O (centres undefined) | >57 | -21.4%
COc1ccc2nc(SCC(=O)N3CCNC3=O)[nH]c2c1 | >57 | 5.7%
c1ccc2nc(N3CCNCC3)ccc2c1 | >25.6&>57&>57 | -28.0%
COCCCNc1ncnc2nc[nH]c12 | >57 | ?
O=C1NC(=O)C(CCc2ccncc2)(C2CCCCC2)C(=O)N1 | >57 | -6.6%
COc1ccc(O[C@H]2C=C[C@@H](c3ccccc3)O[C@H]2CO/N=C(/C)CCC(=O)OC[C@@H]2O[C@H](C#Cc3ccccc3)C=C[C@@H]2Oc2ccc(C)cc2)cc1 | / | 5.7%[8 µM]
CCOC(=O)Cn1c(N)c(C(=O)OC)sc1=S | >57 | -12.0%
Cn1c(=O)[nH]c(=O)c2c1nc(CN1CCOCC1)n2CCCO | >57 | 8.9%
Cn1c(SCc2nc3ccccc3s2)nnc1-c1ccc2c(c1)OCO2 | >57 | 6.2%

This is a subset; rates above refer to the full screens.
